Source: PubChem BioAssay (Broad Institute)
Env fusion inh = inhibitors of HIV-1 Env-driven cell-cell fusion, primary screen, HeLa-JRFL effector, CEM21 target cells, luciferase | inhibition, % at 12.3 µM | hit rate 1.1% among 360,000 | AID 651610, 2012;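 active means mean replicate inhibition score of at least 50 and every replicate individually at or above 50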;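 further: 0% = plate neutral controls and 100% = maraviroc near 300 nM; one replicate is shown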
UUG fidelity = modulators of yeast start codon fidelity, primary screen, whole organism, S. cerevisiae, single point, plate reader | S. cerevisiae UUG-firefly luciferase reporter, luminescence/redox ratio | activity score, % at 18.7 µM | hit rate 0.13% among 350,000 | AID 602363, 2012;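 active means replicate mean at a twofold rise or more, about +100% in these data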;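 further: firefly luciferase made from a UUG start codon reports start codon fidelity; reporter light over untreated wells divided by growth signal over untreated wells; some hits fall short of that in this replicate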
Active calls of the source: *; & = joins results of further samples; [ ] = dose if it differs, or a comment. The list is partial; count on the stated rates, not on these rows.

no.	canonical_smiles	Env fusion inh	UUG fidelity
1	C[C@@H]1CN([C@@H](C)CO)S(=O)(=O)c2ccc(C#CCN(C)C)cc2O[C@@H]1CN(C)Cc1ccc(F)cc1	1[16.7 µM]	23
2	C[C@@H]1CN([C@@H](C)CO)C(=O)c2cc(Br)cnc2O[C@@H]1CN(C)C(=O)Nc1ccccc1	-7[16.7 µM]	2
3	O=C(O)C[C@@H]1C[C@@H]2c3cc(NC(=O)NC4CCCCC4)ccc3O[C@@H]2[C@H](CO)O1	-5[16.7 µM]	8
4	O=C(C[C@@H]1C[C@@H]2c3cc(NC(=O)C4CCOCC4)ccc3O[C@@H]2[C@@H](CO)O1)NCc1ccccc1F	2[16.7 µM]	23
5	O=S(=O)(N[C@@H]1CC[C@@H](CCn2cc(-c3cccc(F)c3)nn2)O[C@@H]1CO)c1ccccc1	9[16.7 µM]	-19
6	C[C@@H]1CN([C@@H](C)CO)C(=O)c2cc(NC(=O)Nc3ccc(F)cc3)ccc2O[C@@H]1CN(C)C(=O)Nc1ccccc1	2[16.7 µM]	9
7	C[C@H](CO)N1C[C@H](C)[C@H](CN(C)S(C)(=O)=O)Oc2ccc(NS(=O)(=O)c3ccc(Cl)cc3)cc2CC1=O	0[16.7 µM]	-3
8	CNC[C@@H]1Oc2cc(-c3ccccc3F)ccc2S(=O)(=O)N([C@@H](C)CO)C[C@H]1C	17[16.7 µM]	-7
9	C[C@H](CO)N1C[C@H](C)[C@H](CN(C)Cc2cccnc2)Oc2cc(-c3cncnc3)ccc2S1(=O)=O	-7[16.7 µM]	-10
10	O=C(Nc1ccc2c(c1)OCO2)N[C@H]1C=C[C@H](CC(=O)N2CCN(c3ccccc3)CC2)O[C@H]1CO	4[16.7 µM]	2
11	Cc1noc(C)c1S(=O)(=O)Nc1ccc2c(c1)C(=O)N([C@H](C)CO)C[C@H](C)[C@@H](CN(C)C(=O)Nc1ccc3c(c1)OCO3)OCCCC[C@@H](C)O2	-25[16.7 µM]	-2
12	C[C@H]1CCCCO[C@H](CN(C)S(=O)(=O)c2ccc(Cl)cc2)[C@@H](C)CN([C@@H](C)CO)C(=O)c2cc(NS(=O)(=O)c3cccs3)ccc2O1	-21[16.7 µM]	5
13	COc1ccc(S(=O)(=O)Nc2ccc3c(c2)CC(=O)N([C@@H](C)CO)C[C@@H](C)[C@@H](CN(C)CC2CC2)O3)cc1	7[16.7 µM]	3
14	COc1ccc(NC(=O)Nc2ccc3c(c2)C(=O)N([C@H](C)CO)C[C@H](C)[C@@H](CN(C)C(=O)Nc2ccc(C(F)(F)F)cc2)OCCCC[C@@H](C)O3)cc1	-15[16.7 µM]	-15
15	C[C@H]1CN([C@@H](C)CO)C(=O)CCCn2cc(nn2)CO[C@@H]1CN(C)Cc1cccc2c1OCCCO2	11[16.7 µM]	3
16	COc1ccc(S(=O)(=O)Nc2cccc3c2O[C@@H](CN(C)S(=O)(=O)c2ccccc2)[C@H](C)CN([C@@H](C)CO)C3=O)cc1	-6[16.7 µM]	-11
17	COc1cccc(CNC(=O)C[C@H]2C=C[C@@H](NC(=O)C3CC3)[C@H](CO)O2)c1	-1[16.7 µM]	1
18	O=C(N[C@H]1CC[C@H](CCNC(=O)C2CCCC2)O[C@@H]1CO)c1ccccn1	7[16.7 µM]	-3
19	CNC(=O)C[C@H]1CC[C@@H]2[C@H](COc3ccc(NC(=O)c4cscn4)cc3C(=O)N2C)O1	-8[16.7 µM]	-9
20	COc1ccccc1-c1cn(CC[C@H]2CC[C@@H](NC(=O)C3CC3)[C@H](CO)O2)nn1	4[16.7 µM]	27
21	C[C@H]1CCCCO[C@H](CN(C)CC2CCCCC2)[C@@H](C)CN([C@@H](C)CO)C(=O)c2cc(NS(=O)(=O)c3cn(C)cn3)ccc2O1	11[16.7 µM]	-17
22	C[C@H](CO)N1C[C@H](C)[C@@H](CN(C)S(C)(=O)=O)Oc2ncc(C3=CCCC3)cc2C1=O	-11[16.7 µM]	-6
23	O=C(NCC[C@@H]1CC[C@H](NC(=O)C2CCC2)[C@H](CO)O1)Nc1ccc(Cl)cc1	-7[16.7 µM]	28
24	C[C@@H]1CN([C@H](C)CO)C(=O)c2cccc(NC(=O)c3ccncc3)c2O[C@@H]1CN(C)Cc1ccc(C(F)(F)F)cc1	-29[16.7 µM]	-8
25	C[C@@H]1CN([C@@H](C)CO)C(=O)c2cc(NC(=O)CCCN(C)C)ccc2O[C@@H](C)CCCCO[C@H]1CN(C)Cc1ccccc1	-2[16.7 µM]	12

Following part
no.	canonical_smiles	Env fusion inh	UUG fidelity
26	C[C@H]1CN([C@@H](C)CO)C(=O)c2cc(C3=CCCC3)cnc2O[C@@H]1CN(C)C(=O)C1CCOCC1	29[16.7 µM]	9
27	C[C@@H]1CN([C@@H](C)CO)C(=O)c2cccc(NC(=O)c3ccncc3)c2O[C@H]1CN(C)Cc1ccc2c(c1)OCO2	7[16.7 µM]	-14
28	CO[C@@H]1CN(C)C(=O)c2cc(NC(C)=O)ccc2OC[C@H](C)N(Cc2cccc(F)c2)C[C@H]1C	9[16.7 µM]	5
29	COc1ccc(S(=O)(=O)N(C)C[C@H]2Oc3ccc(N(C)C)cc3CC(=O)N([C@@H](C)CO)C[C@@H]2C)cc1	-12[16.7 µM]	7
30	C[C@@H]1CCCCO[C@@H](CN(C)C(=O)Nc2ccc(C(F)(F)F)cc2)[C@H](C)CN([C@H](C)CO)C(=O)c2cc(NS(=O)(=O)c3ccccc3)ccc2O1	14[16.7 µM]	-2
31	CC(=O)N(C)C[C@H]1Oc2cc(C3=CCCC3)ccc2S(=O)(=O)N([C@H](C)CO)C[C@@H]1C	4[16.7 µM]	29
32	C[C@@H]1CCCCO[C@@H](CN(C)Cc2ccc3c(c2)OCO3)[C@H](C)CN([C@H](C)CO)C(=O)c2cc(NC(=O)c3ccncc3)ccc2O1	-3[16.7 µM]	7
33	C[C@@H]1CCCCO[C@H](CN(C)C(=O)c2ccccc2)[C@@H](C)CN([C@H](C)CO)C(=O)c2cc(NC(=O)Nc3ccccc3)ccc2O1	-4[16.7 µM]	9
34	C[C@@H]1CN([C@@H](C)CO)S(=O)(=O)c2ccc(C#CC3(O)CCCC3)cc2O[C@@H]1CN(C)C(=O)Nc1cccc(F)c1	-72[16.7 µM]	12
35	C[C@H]1CN([C@@H](C)CO)C(=O)c2cc(NC(=O)C3CCCCC3)ccc2O[C@H]1CN(C)S(C)(=O)=O	-12[16.7 µM]	-7
36	CCCN(C)C[C@H]1Oc2cc(-c3ccncc3)ccc2S(=O)(=O)N([C@H](C)CO)C[C@H]1C	-9[16.7 µM]	-3
37	Cc1noc(C)c1S(=O)(=O)N(C)C[C@@H]1Oc2ccc(NS(=O)(=O)c3ccccc3)cc2CC(=O)N([C@@H](C)CO)C[C@H]1C	-20[16.7 µM]	12
38	COc1ccc(NC(=O)N(C)C[C@@H]2OCCCC[C@H](C)Oc3ccc(NC(=O)C4CCCCC4)cc3C(=O)N([C@H](C)CO)C[C@H]2C)cc1	-34[16.7 µM]	0
39	C[C@@H]1CN([C@H](C)CO)C(=O)c2cc(NC(=O)NC3CCCCC3)ccc2O[C@@H](C)CCCCO[C@@H]1CN(C)S(=O)(=O)c1ccccc1	-36[16.7 µM]	1
40	C[C@H](CO)N1C[C@H](C)[C@H](CN(C)CC2CC2)Oc2ccc(NC(=O)C3CC3)cc2CC1=O	8[16.7 µM]	-1
41	O=C(C[C@H]1CC[C@H](NC(=O)c2ccccn2)[C@H](CO)O1)NCc1cccc(F)c1	10[16.7 µM]	16
42	COc1ccccc1CNC(=O)C[C@H]1CC[C@@H]2[C@H](COC[C@@H](O)CN2Cc2cccc(-c3ccncc3)c2)O1	-13[16.7 µM]	-3
43	CC(C)CC#Cc1cnc2c(c1)C(=O)N([C@@H](C)CO)C[C@@H](C)[C@H](CN(C)C(=O)Nc1cc(F)ccc1F)O2	21[16.7 µM]	37
44	N#C[C@H]1[C@@H](c2ccc(C3=CCCC3)cc2)[C@H](CO)N1C(=O)NC1CCCC1	5[16.7 µM]	16
45	CN(C)CC(=O)N1[C@@H](C#N)[C@@H](c2ccc(-c3ccc(C(=O)N(C)C)cc3)cc2)[C@@H]1CO	-22[16.7 µM]	21
46	C[C@@H]1CCCCO[C@H](CN(C)S(=O)(=O)c2cccs2)[C@@H](C)CN([C@H](C)CO)C(=O)c2cc(N(C)C)ccc2O1	10[16.7 µM]	3
47	Cc1ccc(S(=O)(=O)N(C)C[C@H]2OCCCC[C@@H](C)Oc3ccc(NC(=O)Nc4ccc(F)cc4)cc3C(=O)N([C@@H](C)CO)C[C@@H]2C)cc1	1[16.7 µM]	-11
48	COc1ccc(NC(=O)N(C)C[C@H]2OCCCC[C@H](C)Oc3ccc(N(C)C)cc3C(=O)N([C@@H](C)CO)C[C@@H]2C)cc1	-1[16.7 µM]	24
49	CNC[C@@H]1Oc2ncc(C#CC3(O)CCCC3)cc2C(=O)N([C@@H](C)CO)C[C@@H]1C	-13[16.7 µM]	19
50	O=C(C[C@@H]1C=C[C@H](NC(=O)Nc2ccccc2F)[C@H](CO)O1)NCc1ccc(-c2ccccc2)cc1	43[16.7 µM]	14

Gathered by group, the entries above with a Cl atom.
no.	canonical_smiles	Env fusion inh	UUG fidelity
7	C[C@H](CO)N1C[C@H](C)[C@H](CN(C)S(C)(=O)=O)Oc2ccc(NS(=O)(=O)c3ccc(Cl)cc3)cc2CC1=O	0[16.7 µM]	-3
12	C[C@H]1CCCCO[C@H](CN(C)S(=O)(=O)c2ccc(Cl)cc2)[C@@H](C)CN([C@@H](C)CO)C(=O)c2cc(NS(=O)(=O)c3cccs3)ccc2O1	-21[16.7 µM]	5
23	O=C(NCC[C@@H]1CC[C@H](NC(=O)C2CCC2)[C@H](CO)O1)Nc1ccc(Cl)cc1	-7[16.7 µM]	28

Later entries:
no.	canonical_smiles	Env fusion inh	UUG fidelity
51	CCC(=O)N(C)C[C@H]1Oc2cc(-c3ccc(C#N)cc3)ccc2S(=O)(=O)N([C@H](C)CO)C[C@@H]1C	5[16.7 µM]	28
52	CNC[C@@H]1Oc2cc(C#CCN(C)C)ccc2S(=O)(=O)N([C@H](C)CO)C[C@@H]1C	11[16.7 µM]	4
53	CCCN(C)C[C@@H]1Oc2ncc(Br)cc2C(=O)N([C@H](C)CO)C[C@@H]1C	17&-6[16.7 µM]	-3&-8
54	C[C@H]1CCCCO[C@H](CN(C)C(=O)Nc2cccc3ccccc23)[C@@H](C)CN([C@@H](C)CO)C(=O)c2cc(NC(=O)Nc3ccc4c(c3)OCO4)ccc2O1	-7[16.7 µM]	-15
55	CCCN(C)C[C@@H]1OCCCC[C@@H](C)Oc2ccc(NS(C)(=O)=O)cc2C(=O)N([C@H](C)CO)C[C@H]1C	16[16.7 µM]	6
56	O=C(CC1CC1)N[C@@H]1CC[C@@H](CCNS(=O)(=O)c2ccc(F)cc2)O[C@H]1CO	-4[16.7 µM]	-7
57	Cc1ccc(S(=O)(=O)N(C)C[C@@H]2Oc3c(NC(=O)Nc4ccc5c(c4)OCO5)cccc3C(=O)N([C@H](C)CO)C[C@H]2C)cc1	-29[16.7 µM]	0
58	C[C@@H]1CN([C@@H](C)CO)S(=O)(=O)c2ccc(-c3ccccc3F)cc2O[C@H]1CN(C)C	10[16.7 µM]	-3
59	COc1ccc(S(=O)(=O)N(C)C[C@H]2Oc3c(NC(=O)Nc4ccc5c(c4)OCO5)cccc3C(=O)N([C@@H](C)CO)C[C@H]2C)cc1	-11[16.7 µM]	2
60	C[C@H](CO)N1C[C@H](C)[C@@H](CN(C)C(=O)C2CC2)Oc2ncc(C#CC(C)(C)O)cc2C1=O	1[16.7 µM]	5
61	C[C@H](O)C#Cc1cnc2c(c1)C(=O)N([C@@H](C)CO)C[C@@H](C)[C@H](CN(C)C(=O)c1ccncc1)O2	-2[16.7 µM]	-2
62	C[C@@H]1CN([C@H](C)CO)C(=O)c2cc(NC(=O)CCCN(C)C)ccc2O[C@@H](C)CCCCO[C@@H]1CN(C)S(=O)(=O)c1ccc(F)cc1	0[16.7 µM]	33
63	COc1ccc(CN(C)C[C@@H]2OCCCC[C@H](C)Oc3ccc(NC(=O)Nc4ccc(C(F)(F)F)cc4)cc3C(=O)N([C@@H](C)CO)C[C@@H]2C)cc1	76*[16.7 µM]	0
64	C[C@@H]1CN([C@@H](C)CO)C(=O)c2cc(Br)cnc2O[C@H]1CN(C)Cc1cccc(F)c1	-8&5[16.7 µM]	5&12
65	COc1ccc(S(=O)(=O)Nc2ccc3c(c2)C(=O)N([C@@H](C)CO)C[C@@H](C)[C@H](CN(C)C(=O)Nc2ccc(C(F)(F)F)cc2)O3)cc1	10[16.7 µM]	-11
66	C[C@@H]1CN([C@H](C)CO)C(=O)Cc2cc(NC(=O)CCCCCC(=O)Nc3ccccc3N)ccc2O[C@H]1CN(C)Cc1ccc(C(F)(F)F)cc1	38[16.7 µM]	53
67	CCS(=O)(=O)NCC[C@H]1CC[C@H](NS(=O)(=O)c2ccccc2C)[C@H](CO)O1	13[16.7 µM]	-11
68	C[C@H]1CN([C@@H](C)CO)C(=O)Cc2cc(NS(=O)(=O)c3ccc(Cl)cc3)ccc2O[C@H]1CN(C)CC1CCCCC1	12[16.7 µM]	-6
69	O=C1O[C@@H](c2ccccc2)[C@@H](c2ccccc2)N2[C@@H](c3ccccc3OCCO)[C@]3(C(=O)Nc4ccc(C#CCCO)cc43)[C@@H](C(=O)O)[C@H]12	-49[16.7 µM]	11

Record cards, from the list above:
C[C@@H]1CN([C@@H](C)CO)C(=O)c2cc(Br)cnc2O[C@H]1CN(C)Cc1cccc(F)c1 is entered as Env fusion inh: -8&5[16.7 µM]; UUG fidelity: 5&12
COc1ccc(S(=O)(=O)Nc2ccc3c(c2)C(=O)N([C@@H](C)CO)C[C@@H](C)[C@H](CN(C)C(=O)Nc2ccc(C(F)(F)F)cc2)O3)cc1 is entered as Env fusion inh: 10[16.7 µM]; UUG fidelity: -11
